NS1 function inh – qHTS Assay for Inhibitors of Influenza NS1 Protein Function; Potency, µM (doses to about 46.1 µM), for the others: at the highest dose activity, positive = more growth; 270,000 tested, 0.4% active; S. cerevisiae slowed by influenza A NS1, growth recovery by OD600; active means well fitted rising curve with a large enough effect; inconclusive means small, poorly fitted or top-dose-only effect; inactive means no such curve, though single readings can be large or run the other way; note: nearly all actives have a fitted effect of over 50% in size
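Growth recovery, yeast-based: influenza A NS1 expressed in S. cerevisiae causes slow growth, and suppressors are detected by OD600. The parent strain without NS1 is used as positive control.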
Cruzain inh noDet – qHTS Assay for Promiscuous and Specific Inhibitors of Cruzain (without detergent) | purified cruzain, Z-FR-AMC fluorescence, no detergent | Potency, µM, for inactives: max response, negative = inhibition, usual class: inhibitors | Cruzipain (Trypanosoma cruzi), P25779 | 200,000 tested, 2.3% active | AID 1476, 2009;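 note: plate controls were enzyme without inhibitor for no effect and buffer without enzyme for full effect; nearly all actives have a fitted effect of over 40% in size; top concentration of the series not given in the record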
Target sequence (P25779 123-467 limits assumed): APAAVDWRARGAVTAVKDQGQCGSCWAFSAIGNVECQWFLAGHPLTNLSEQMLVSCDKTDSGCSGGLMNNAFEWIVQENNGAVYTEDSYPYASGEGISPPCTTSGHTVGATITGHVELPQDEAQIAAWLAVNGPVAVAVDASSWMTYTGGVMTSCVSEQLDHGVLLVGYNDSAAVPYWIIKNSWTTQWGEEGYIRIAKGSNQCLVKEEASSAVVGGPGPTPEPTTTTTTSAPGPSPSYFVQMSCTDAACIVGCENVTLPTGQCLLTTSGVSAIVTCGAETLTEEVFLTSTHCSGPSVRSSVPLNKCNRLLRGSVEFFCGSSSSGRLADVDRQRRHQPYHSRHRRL
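Detergent-free condition (0.00005% Triton X-100) in acetate buffer pH 5.5 with DTT. 1.5 nM enzyme and compound were pre-mixed 15 min, then 2 uM Z-FR-AMC substrate added; reaction progress from fluorescence change between first and third reads (60 s).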
SARS PLpro yeast – qHTS of Yeast-based Assay for SARS-CoV PLP | S. cerevisiae expressing SARS-CoV PLpro, growth rescue; control for the full effect not named in the record | Potency, µM (top dose mostly 32.9 µM), for inactives: at the top dose activity, positive = growth rescue | 330,000 tested, 0.19% active; active means well fitted rising curve with a large enough effect; inconclusive means small, poorly fitted or top-dose-only effect; inactive means no such curve, though single readings can be large or run the other way; note: 0% is about no effect; nearly all actives have a fitted effect of over 55% in size; growth read by luminescence after 48 h
LASV entry inh – qHTS for Inhibitors of binding or entry into cells for Lassa Virus. Potency, µM (series often up to 37.9 µM), for the others: at the highest dose activity change, negative = inhibition, hits mostly inhibitors. 300,000 tested, 1.2% active. AID 540256, 2011. Lassa virus pseudotype entry inhibition, cell reporter; control for the full effect not named in the record; active means well fitted inhibition curve with a large enough effect; inconclusive means small, poorly fitted or top-dose-only effect, or effect the other way; inactive means flat fitted curve, though single readings scatter; tested in HEK293 cells; note: % is set by controls: 0 for no effect and ±100 for the full control effect; nearly all actives have a fitted effect of over 50% in size; luciferase read-out
Cruzain Triton – qHTS Assay for Promiscuous and Specific Inhibitors of Cruzain (with detergent); Cruzipain (Trypanosoma cruzi), P25779; Potency, µM, for inactives: max response, negative = inhibition, hits mostly inhibitors; AID 1478, 2009; 200,000 tested, 0.43% active; purified cruzain, Z-FR-AMC fluorescence, 0.01% Triton;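 note: plate controls were neutral wells for no effect and buffer without enzyme for full effect; nearly all actives have a fitted effect of over 40% in size; top concentration of the series not given in the record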
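Cysteine protease activity tested under reducing, mildly acidic conditions (100 mM sodium acetate pH 5.5, 5 mM DTT) plus 0.01% Triton X-100. Cruzain 1.5 nM; substrate Z-FR-AMC 2 uM; 15 min compound preincubation at room temperature.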
MARV entry inh – qHTS for inhibitors of binding or entry into cells for Marburg Virus; Marburg virus pseudotyped entry inhibition, cell reporter; control for the full effect not named in the record; about a third of the inactives were read at about 46 µM; Potency, µM (series often up to 37.8 µM), without a hit: top-dose activity change, negative = inhibition, hits mostly inhibitors; 300,000 tested, 1.8% active; active = well fitted inhibition curve with a large enough effect; inconclusive = small, poorly fitted or top-dose-only effect, or effect the other way; inactive = flat fitted curve, though single readings scatter; tested in HEK293 cells; about a fifth of its hits are not listed in these tables; note: % is set by controls: 0 for no effect and ±100 for the full control effect; luciferase read-out
2A StopGo – High Throughput Screening for Foot and Mouth Disease Virus Antivirals; human cells with a luciferase reporter of 2A StopGo recoding; control for the full effect not named in the record; Potency, µM (doses to about 57.9 µM), for inactives: top-dose signal change, negative = less light; 410,000 tested, 1.2% active; active = well fitted falling curve with a large enough effect; inconclusive = small, poorly fitted or top-dose-only effect; inactive = no such curve, though single readings can be large or run the other way; tested in HEK293T cells; note: % is set by controls: 0 for no effect and ±100 for the full control effect; nearly all actives have a fitted effect of over 45% in size; luciferase light after 4 h
RE007 growth inh – qHTS Assay for Inhibitors of the HIV-1 protein Vpr; S. pombe RE007 Vpr strain, BacTiter-Glo ATP luminescence, 24 h; control for the full effect not named in the record; Potency, µM (highest dose often 92.2 µM), for the others: top-dose activity change, negative = less growth; 360,000 tested, 0.21% active; active = well fitted falling curve with a large enough effect; inconclusive = small, poorly fitted or top-dose-only effect; inactive = no such curve, though single readings can be large or run the other way;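 note: % is set by controls: 0 for no effect and ±100 for the full control effect; nearly all actives have a fitted effect of over 50% in size; the assay follows cell death caused by Vpr and the record does not say whether a fall means rescue or toxicity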
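Fission yeast RE007 carrying one integrated HIV-1 vpr copy, seeded at OD 0.01 in PMG+AL medium with 23 nL pinned compound. Grown 24 h at 30 degrees; viability read by BacTiter-Glo luminescence after 5 min.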
Active calls of the source: *; ? = inconclusive; · = not tested or not shown; & = joins results of further samples; [ ] = dose if it differs, or a comment. Unless noted, calls come from the whole dose curve; as a rule, active = well fitted curve in the direction sought with a large enough effect; inconclusive = small, poorly fitted or top-dose-only effect, or another doubt; inactive = no such curve, though single readings can be large; an effect the other way counts as inactive or inconclusive. Potency is the fitted concentration of half-maximal effect.

Every second line gives: NS1 function inh | Cruzain inh noDet | SARS PLpro yeast | LASV entry inh | Cruzain Triton | MARV entry inh | 2A StopGo | RE007 growth inh
Nc1nc2ccc(S(=O)(=O)c3ccc4nc(N)sc4c3)cc2s1
    0% | -23% | 8% | -4% | -0.4% | 19% | 50%[activator] | -5%
CCC1(CC(C)c2ccccc2)C(=O)NC(=O)NC1=O (stereo unspecified)
    · | · | · | 8%[46.1 µM] | · | ? | -7% | 4%
COC(=O)c1cccc(C(=O)Nc2ccc(F)cc2)n1
    1% | 0% | 0% | -6% | 0.9% | 10%&10% | 2% | -2%
COc1cccc(CNC(=O)c2cc3c(cc2Cl)N2CCCCCC2=NS3(=O)=O)c1
    · | · | 2% | 15% | · | -2% | 0% | -6%
O=[N+]([O-])c1ccc(CN2CCCCCC2)s1
    3% | -5% | -46% | 6% | -4.8% | ? | -17% | ·
CSCC[C@H](NC(=O)Nc1cccc(Br)c1)C(=O)O
    1% | · | 1% | -4% | · | 7%[46.1 µM] | 5% | 7%
CCSc1ncnc2sc3c(c12)CCC3
    -18% | -1% | 3% | 14% | 0.3% | 14% | -10% | 6%
COC(=O)c1ccc2c(CCO)c[nH]c2c1
    3% | · | -2% | · | · | · | 62%[activator] | 5%
CC(C)CN(C(=O)C(c1ccccc1)c1ccccc1)c1c(N)n(CC(C)C)c(=O)[nH]c1=O
    4% | · | 2% | -16% | · | ? | 1% | -15%
c1ccc(-c2nnc(-c3ccccn3)s2)nc1
    12% | · | 3% | ? | · | 1.1µM* | -75% | -3%
COc1ccc(Cl)cc1C(=O)NNC(=S)NC(=O)c1ccc(F)c(F)c1
    5% | · | -2% | 24% | · | 3%[46.1 µM] | -21% | -7%
O=C(NCCCc1ccccc1)c1nn(-c2ccccc2F)nc1CO
    · | 5% | · | ? | -1.1% | 10%[46.1 µM] | ? | ·
CCc1ccc(NC(=O)C2CCN(c3ccc(Sc4ccc(C)cc4)nn3)CC2)cc1
    · | 0% | · | 4%[46.1 µM] | -2.0% | 3%[46.1 µM] | -17% | ·
CC1(C)CC(=O)C2=C(C1)OC1=C(C(=O)CC(C)(C)C1)C2c1ccccc1
    7% | -2% | -4% | ? | -5.7% | -5% | -26% | -2%
Cc1ccc(C)c(N(CC(=O)NCc2ccco2)C(=O)CNS(=O)(=O)c2ccc(F)cc2)c1
    0% | · | -2% | -27%[46.1 µM] | · | ? | 1% | 11%
CCOC(=O)N1CCN(C(=O)c2ccc3c(c2)N=C(CC)c2cc(C)ccc2S3)CC1
    8% | · | -4% | · | · | · | -11% | -11%
COc1ccc(/C=C/C(=O)Nc2ccc(C)cc2)cc1S(=O)(=O)N1CCOCC1
    ? | · | 2% | · | · | · | ? | 14%
CNc1nc(Oc2ccc(=O)[nH]n2)nc(N2CCOCC2)n1
    · | 11% | · | 27%[46.1 µM] | 1.1% | ? | -4% | ·
COc1ccccc1CN(C(=O)Cc1cccs1)C(C(=O)NC1CCCC1)c1ccncc1 (stereo unspecified)
    -16% | 7% | 4% | 4% | 4.7% | ? | · | -9%
Cc1cccc(N2C(=O)C3C(c4ccccc4)OC4(C(=O)c5ccccc5C4=O)C3C2=O)c1 (stereo unspecified)
    1% | -1% | 0% | -7% | -1.5% | 2% | -9% | 7%
CCCCN(C(=O)CSCC(=O)Nc1cccc(C)c1)c1c(N)n(Cc2ccccc2)c(=O)[nH]c1=O
    · | · | 5% | -12% | · | ? | -12% | 7%
CC(CC(=O)NCc1cccnc1)c1ccccc1 (stereo unspecified)
    -2% | 4% | -5% | 18% | 0.4% | 5% | -3% | 6%
COC(=O)C1(CCSC)NC(c2ccc(O)cc2)C2C(=O)N(c3ccc(F)cc3)C(=O)C21 (stereo unspecified)
    -1% | · | 5% | 17%[46.1 µM] | · | 3%[46.1 µM] | -21% | -15%
NC(=O)C1=C(c2ccccc2)c2ccccc2C1=O
    · | · | · | ? | · | ? | 32µM* | -3%
COc1cc(OC)c(C2=NOC(C(=O)Nc3ccc4c(c3)OCO4)C2)cc1Cl (stereo unspecified)
    · | · | 0% | -9% | · | -2%[46.1 µM] | 0% | -1%
O=c1ccc(-c2nc3ccccc3n2Cc2ccc(Cl)cc2)c[nH]1
    -2% | · | 3% | -17% | · | ? | ? | 0%
COC(=O)C1[C@H]2SC(C)(C)C(C(=O)OC)N2C(=O)N1Cc1nc2ccccc2s1 (stereo partly specified)
    23% | · | 3% | · | · | · | 4% | -13%
Cn1cc(C(=O)NS(=O)(=O)Nc2ccc(Br)cn2)c2ccccc21
    -2% | · | ? | ? | · | ? | 32%[activator] | 7%
COc1ccccc1/C=C\C=N\NC(=O)c1ccco1
    0% | · | -1% | 0% | · | 0%[46.1 µM] | 0% | 6%
CCn1c(SCC(=O)Nc2ccc3c(c2)OCCO3)nc2c(c1=O)SC(C)C2 (stereo unspecified)
    -47% | -11% | 1% | -1% | -5.5% | -15% | -2% | 1%
CN(C)CCOc1cc(Cl)cc(Cl)c1
    1% | · | 1% | 19% | · | 1% | -10% | 7%
Cc1ccc(CNC(=O)CSc2nccn(-c3ccc(C)c(F)c3)c2=O)cc1
    · | · | 4% | -17% | · | ? | -5% | -22%
COc1ccc(C(CNC(=O)c2ccc(NS(=O)(=O)c3cccc([N+](=O)[O-])c3)cc2)N2CCOCC2)cc1 (stereo unspecified)
    -39% | · | 2% | 0% | · | 3% | -11% | -18%
O=C(NCc1cccnc1)C(=O)NCC1OCCN1S(=O)(=O)c1ccc(Cl)cc1 (stereo unspecified)
    0% | 1% | 3% | 5% | -0.6% | -10% | -16% | 7%
Cc1ccccc1Cn1nc(C)c(NC(=O)c2noc3c2CCCC3)c1C
    -17% | 25% | -3% | ? | -2.7% | ? | -4% | 1%
COc1cc([N+](=O)[O-])ccc1NC(=O)c1nc2ccccc2n(C)c1=O
    · | 2% | · | 12%[46.1 µM] | -2.0% | 7%[46.1 µM] | 77%[activator] | ·
Cc1ccc(Cn2c(SCC(=O)NCC3CCCO3)nc3c(sc4ccccc43)c2=O)cc1 (stereo unspecified)
    7% | ? | 2% | 2% | 3.7% | ? | 11% | -6%
COCCn1c(SCC(=O)NCc2ccc3c(c2)OCO3)nnc1C(C)C
    1% | · | 3% | 0% | · | -24%[46.1 µM] | -18% | 6%
Cc1ccccc1Cn1nc(C)c(NC(=O)c2cc3nc(-c4ccco4)cc(C(F)(F)F)n3n2)c1C
    -36% | ? | -7% | ? | -4.1% | ? | ? | 8%
CC(C)c1ccc(-c2cc(C(=O)N3N=C(C(F)F)CC3(O)C(F)F)c3ccccc3n2)cc1 (stereo unspecified)
    -4% | 11% | -70% | -1% | -0.9% | ? | 15% | -11%
O=C(NNc1c(Cl)cccc1Cl)c1cccs1
    0% | · | -2% | -15%[46.1 µM] | · | ? | 1% | 11%
O=C(CCCn1c(=S)[nH]c2ccccc2c1=O)NC1CCCC1
    3% | 5% | -2% | 0% | 1.3% | 4% | 22% | 1%[3.69 µM]
COc1cccc(N2C(=O)C(CC(=O)Nc3ccccc3)N(C3CCCCC3)C2=O)c1 (stereo unspecified)
    -49% | -3% | -10% | -7% | 2.4% | 0% | 0% | 1%
Cc1ccc(-c2nnc(SCC(=O)NNC(=O)COc3cccc4ccccc34)n2C)cc1
    -2% | 6% | 0% | -5% | 0.5% | 22% | · | ·
O=C(O)COc1ccccc1-c1ccccc1
    0% | · | -2% | · | · | · | -21% | 1%
COc1ccc(NC(=O)CC2C(=O)N(c3ccc(F)cc3)C(=S)N2NC(=O)c2ccc(Cl)cc2)cc1 (stereo unspecified)
    9% | -14% | -9% | 4% | -0.8% | -4% | -13% | 5%
CCCCn1c(N)c(N(CC)C(=O)C(c2ccccc2)c2ccccc2)c(=O)[nH]c1=O
    3% | · | 2% | · | · | · | -17% | 2%
CCOC(=O)C1CCCN(Cc2cc(=O)oc3cc(C)c(C(C)C)cc23)C1 (stereo unspecified)
    · | · | -4% | 0% | · | 3%[46.1 µM] | ? | -7%
COc1ccc(C(=O)NCc2nnc(SCC(=O)Nc3nc4ccccc4s3)o2)cc1OC
    8% | 7% | -1% | 11% | -0.9% | ? | -16% | 15%
COc1ccccc1Nc1sc(C(=O)c2ccc3c(c2)OCO3)c(N)c1S(=O)(=O)c1ccccc1
    · | 7.9µM* | · | 4%[46.1 µM] | -3.5% | · | -12% | ·

Next section.
Every second line gives: NS1 function inh | Cruzain inh noDet | SARS PLpro yeast | LASV entry inh | Cruzain Triton | MARV entry inh | 2A StopGo | RE007 growth inh
CC(C)CNS(=O)(=O)c1ccc(CCC(=O)NCc2ccco2)cc1
    1% | -2% | 17% | -8% | -6.7% | -17% | 29% | 9%
Cc1ccccc1CN1CCCN(CC(=O)Nc2ccc3c(c2)OCCO3)S1(=O)=O
    · | 9% | · | ? | -4.5% | · | 12% | ·
CCC[N+](CC#Cc1ccccc1)(CCC)CC(=O)OCC
    16% | 0% | 4% | -7% | -1.2% | 13% | -16% | -14%
O=[N+]([O-])c1cccc(C(=Nc2cccc(Cl)c2)NO)c1
    -7% | -4% | -2% | 0% | -2.2% | -20% | ? | -4%
O=C(NCCc1ccccc1)c1cccc(N2C(=O)C3CC=CCC3C2=O)c1 (stereo unspecified)
    · | · | -3% | -2% | · | 8%[46.1 µM] | -22% | 26%
Cc1ccc(NC(=O)CSc2nnc(-c3ccc([N+](=O)[O-])cc3)o2)c(C)c1
    · | 12% | · | -6%[46.1 µM] | 0.6% | 12%[46.1 µM] | -19% | ·
O=C(Nc1ccc(Br)c(Cl)c1)C1CC1
    -51% | 1% | -20% | 7% | -5.4% | 4% | -9% | ?
CCOc1ccc(NC(=S)N2CCC(N(C)CC3CCCO3)CC2)cc1 (stereo unspecified)
    -7% | 9% | ? | -3% | 2.2% | 0% | -7% | 4%

High-throughput results deposited in PubChem BioAssay by National Center for Advancing Translational Sciences (NCATS).
